From PubChem BioAssay
Proteasome disasm = blocks ATP-dependent breakdown of the yeast 26S proteasome. anti-FLAG beads, GFP-proteasome disassembly, flow cytometry. inhibition of disassembly, % (test concentration not listed). hit rate 0.2% among 24,000;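 active means above 40%; inconclusive means likely self-fluorescent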;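 further: plate controls were ATP control with full disassembly for no effect and ATP-gamma-S intact proteasomes for full effect; higher percent means more bead fluorescence retained so stronger block of disassembly; stock transfer was 100 nL into about 10 µL; wells with too few beads may also be inconclusive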
VCAM-1 up = enhancers of VCAM-1 display on endothelial cells, cell-based, plate reader, pooled HUVEC, TNFa stimulus (AID 455). hit rate 0.2% among 10,000. HUVEC TNFa-induced VCAM-1 immunofluorescence, plate reader; numbers were filed only for top-ranked candidate wells. augmentation, % at 5 µM;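 active means a compound raising TNF-alpha-driven VCAM-1 surface staining, with its hit status upheld on visual or statistical review; inactive means the rest, including hits rejected on review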;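 further: 0% = TNFa with vehicle and 100% = strongest image-checked hit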
* hit, by the source's call; i = inactive; ? = inconclusive; . = not tested or not shown. A portion of the library, so the mix of outcomes need not match the whole.

Proteasome disasm	VCAM-1 up	molecule
-1.1	.	CCN1CCN(Cc2ccc(NC(=O)Nc3ccccc3Cl)cc2)CC1
0.3	.	CCn1c(C(=O)Nc2ccsc2C(=O)OC)cc2sc(Cl)cc21
-4.8	.	O=C(CCCc1c[nH]c2ccccc12)N1CCN(c2ccc(N3CCOCC3)nn2)CC1
1.0	.	COc1ccccc1N1CCN(C(=O)C(NS(=O)(=O)c2cccs2)c2ccccc2)CC1 (stereo not given)
-0.7	i	CC(=O)Nc1cccc(NC(=O)c2oc3ccccc3c2C)c1
-1.4	.	CC(NC(=O)c1cnc2n(c1=O)CCS2)c1ccccc1 (stereo not given)
1.2	.	O=C(Nc1ccc(F)cc1F)c1cc(-c2ccco2)on1
-0.5	i	COc1cc(C2c3c(oc4c(C)cc(C)cc4c3=O)C(=O)N2Cc2cccnc2)cc(OC)c1OC (stereo not given)
-0.4	i	O=C(CN(c1ccc(F)cc1)S(=O)(=O)c1ccc2c(c1)OCCO2)NCC1CCCO1 (stereo not given)
2.9	i	COCCn1nnnc1C(c1ccccc1OC)N1CCc2ccccc2C1 (stereo not given)
1.9	i	CCCC(=O)Nc1cnc(NC(=O)c2cccc(F)c2)cc1C
-0.4	.	Cc1ccc(C)c(Cn2cnc3c(nnn3-c3ccc(F)cc3)c2=O)c1
0.6	.	CCN1C(=O)C(O)(CC(=O)c2ccc3c(c2)OCCO3)c2ccccc21 (stereo not given)
5.5	.	CCOC(=O)c1oc2ccc3c(c2c1C)C(=O)CC1(CCN(C(=O)OCC)CC1)O3
6.1	i	CCOC(=O)C1CCN(c2nc3ccccc3nc2C(C#N)C(=O)OC(C)C)CC1 (stereo not given)
0.1	.	O=C(NCc1cccs1)C1CCC(=O)N1C1CCCCC1 (stereo not given)
-0.7	.	Cc1ccccc1-n1nc2c(c1NC(=O)c1ccc(Br)o1)CSC2
-0.4	i	Cc1cc(C)n2nc(C(=O)NCc3ccco3)nc2n1
0.6	i	O=C(NCC1CCCO1)C1CCCN(S(=O)(=O)c2cccc3nsnc23)C1 (stereo not given)
1.0	i	CC(C)(C)c1cc(CCC(=O)N2CCNCC2)c(C(C)(C)C)cc1O
-0.6	.	COC(=O)c1ccc(CSc2ccc3nnc(-c4ccc(OC)c(OC)c4)n3n2)o1
0.4	.	COc1cc(/C=c2\sc3nc(-c4ccncc4)nn3c2=O)ccc1OC(C)=O
-0.1	i	COCCNC(=O)CN1C(=O)CSc2ncccc21
0.7	i	O=C1Nc2ccccc2OC1CC(=O)N1CCCC1 (stereo not given)
1.6	.	CCCC(=O)c1cc2ccccc2oc1=O
-0.3	.	CC(=O)N(Cc1ccco1)C1(C(=O)NC2CCCCC2)CCCCC1
1.1	.	Cc1c(NC(=O)c2cc(-c3cccs3)on2)c(=O)n(-c2ccccc2)n1C
0.1	i	COc1cc(NS(=O)(=O)c2cccc3nsnc23)c(C(=O)O)cc1OC
2.3	.	Cn1c(C(=O)N2CCCC(C(=O)NCc3ccc4c(c3)OCO4)C2)cc2sccc21 (stereo not given)
0.7	i	FC(F)(F)c1cc(-c2ccco2)nc(-n2nnc3ccccc32)n1
0.3	.	CC1CCCCN1Cc1ccc(-c2nn[nH]n2)cc1 (stereo not given)
-3.1	.	COc1ccc(C2c3c(oc4ccccc4c3=O)C(=O)N2c2ccccn2)cc1OC (stereo not given)
-0.7	.	O=C(CCN1C(=O)C2CC=C(Cl)CC2C1=O)Nc1ccccc1O (stereo not given)
3.1	i	Cc1ccc(Nc2cc(C)nc3nnnn23)cc1
-0.5	.	O=C(Cn1cnc2c(nnn2-c2cccc(Cl)c2)c1=O)N1CCCC1
0.4	i	Cc1ccc(C(C)C)c(OCCCN2CC(C)OC(C)C2)c1 (stereo not given)
-0.4	.	C=CCc1cccc(C2Nc3ccccc3C(=O)N2O)c1O (stereo not given)
-0.2	.	CCOC(=O)c1c(NC(=O)CN2CCCCC2)sc2c1CCCC2O (stereo not given)
-7.2	.	O=c1cc(N2CCc3ccccc32)[nH]c(=O)n1Cc1ccc(F)cc1
-0.8	.	CCOC(=O)c1cn(CC(=O)Nc2ccc(C(C)C)cc2)nn1
-0.3	i	O=C1CN(C(=O)COC(=O)c2ccccc2NC(=O)c2ccco2)c2ccccc2N1
-2.0	.	CCOC(=O)N1CCN(C(=O)CN2C(=O)COc3ccc(C(C)(C)C)cc32)CC1
7.8	.	Cc1ccc(-c2ccc(CCC(=O)O)n2C(C)C)cc1
0.4	i	Cc1ccc(NC(=O)C2CCCNC2=O)nc1 (stereo not given)
-0.1	.	O=C(CNS(=O)(=O)c1cccs1)N1CCCC1

Entries of single compounds, quoted from the list. Screens in order: Proteasome disasm | VCAM-1 up
Record of Cc1ccc(-c2ccc(CCC(=O)O)n2C(C)C)cc1 = 7.8 | .
Record of CCCC(=O)c1cc2ccccc2oc1=O = 1.6 | .
Record of O=C1CN(C(=O)COC(=O)c2ccccc2NC(=O)c2ccco2)c2ccccc2N1 = -0.3 | i
Record of Cn1c(C(=O)N2CCCC(C(=O)NCc3ccc4c(c3)OCO4)C2)cc2sccc21 (stereo not given) = 2.3 | .
Record of CC(=O)Nc1cccc(NC(=O)c2oc3ccccc3c2C)c1 = -0.7 | i

New compounds follow
Proteasome disasm	VCAM-1 up	molecule
-0.2	.	COc1ccc(CC(CC(=O)O)C(=O)Nc2ccc(OC)cc2)cc1 (stereo not given)
0.0	.	COc1ccc(NC(=O)c2cc3n(n2)C(C(F)(F)F)CC(c2ccc4c(c2)OCO4)N3)cc1OC (stereo not given)
-0.9	.	Clc1ccccc1C1SCC2Nc3ccccc3CN21 (stereo not given)
-1.6	.	O=C1NC(c2ccco2)Nc2sc3c(c21)CCN(Cc1ccccc1)C3 (stereo not given)
-1.5	i	O=C(COc1ccccc1Cl)NCc1ccco1
-2.4	.	CCC(=O)NCc1nc2ccccc2n1Cc1ccccc1F
0.6	.	Cc1ccc(-c2nc3ncccn3c2Nc2ccc3c(c2)OCO3)o1
1.0	.	COc1cccc(C2CC(c3ccc(Cl)cc3)n3nc(N)nc3N2)c1 (stereo not given)
-1.2	.	COc1cc(-c2nc(-c3ccc(Br)o3)no2)cc(OC)c1OC
-5.3	i	CCOC(=O)c1cc2sccc2n1CC(=O)Nc1ccc(OC)cc1OC
5.9	i	N#Cc1c(N)oc(-c2cccs2)c1-c1cccs1
-0.4	.	Cc1ccc(NC(=O)C2CCN(S(=O)(=O)c3cccc4cccnc34)CC2)nc1
-0.4	.	O=C(CSc1nc2c(c(=O)n1-c1ccc(Br)cc1)SCC2)NCC1CCCO1 (stereo not given)
1.6	.	O=C(c1cnc(N2CCN(c3ncccn3)CC2)c2ccccc12)N1CCN(c2ncccn2)CC1
-1.1	.	Cc1ccc(S(=O)(=O)NCCC(=O)N2CCN(Cc3ccccc3)CC2)cc1
-0.2	.	O=C(C1CCCN1S(=O)(=O)c1cccc2cccnc12)N1CCN(c2ccccc2)CC1 (stereo not given)
-0.4	.	COC(=O)c1ccc(NC(=O)CCNS(=O)(=O)c2cccc3nonc23)cc1
0.3	i	c1ccc2c(c1)nc(NCCN1CCOCC1)c1nncn12
0.3	.	O=C(c1ccc2c(c1)OCO2)N(CC1CCCO1)C1(C(=O)NC2CCCC2)CCCCC1 (stereo not given)
-0.4	.	CCCN1C(=O)c2cc(C(=O)NCc3ccc(OC)cc3)ccc2C1O (stereo not given)
3.8	.	Cc1ccc(-c2[nH]nc3c2C(c2cccnc2)C(C#N)=C(N)O3)cc1 (stereo not given)
1.5	.	Cc1oc(-c2ccc(Cl)cc2)nc1CN1CCCC(C(=O)NCc2ccccn2)C1 (stereo not given)
0.8	.	Cc1ccc(CS(=O)(=O)CCC(=O)NCCCN2CCCC2=O)cc1
-0.2	i	COc1ccccc1N1CCN(C(=O)C2CCCO2)CC1 (stereo not given)
-1.9	i	O=C(CCCNS(=O)(=O)c1ccccc1)NCc1ccco1
-1.9	.	CCOC(=O)N1CCN(C(=O)CSc2nnc(-c3ccc(C)c(C)c3)o2)CC1
-0.5	.	O=C1NCC(O)=C1C=NCCCO
-0.6	.	CCCCCn1c(=O)[nH]c2cc(C(=O)NCCCN(CC)CC)ccc2c1=O
1.0	.	COc1ccc(C2=NOC(C(=O)N3CCN(c4ccccc4OC)CC3)C2)cc1 (stereo not given)
0.4	.	Cc1nc2nc(C)c(CCC(=O)N3CCN(c4ccccn4)CC3)c(C)n2n1
0.3	.	COc1cc(OC)cc(C(=O)Nn2cc(C(=O)N3CCN(C)CC3)c3ccccc3c2=O)c1
-1.6	.	Cc1cc(C(=O)NCc2cccs2)n(-c2ccccc2)n1
-0.3	.	CC(C)CC(=O)N(c1ccc(F)cc1)C1C=CS(=O)(=O)C1 (stereo not given)
-1.0	.	CCCNC(=O)c1c[nH]c2ccc(S(=O)(=O)N(C)c3ccc(OCC)cc3)cc2c1=O
-0.2	.	CCCN(CCC)CCCNC(=O)CC1Nc2ccccc2NC1=O (stereo not given)
0.3	.	O=C(NCCS(=O)CCNC(=O)C(F)(F)F)C(F)(F)F
-2.4	.	O=C1CC(c2ccc(S(=O)(=O)NCc3ccncc3)cc2)CN1 (stereo not given)
-1.5	.	O=C(NCC(c1cccnc1)N1CCN(c2ccccc2F)CC1)C1CCCCC1 (stereo not given)
-0.6	i	CCCC(=O)Nc1nnc(CC(=O)N2CCCC2)s1
-1.1	i	Cc1c(C)[n+](=O)c2c(n1[O-])CCCCC2
0.0	.	Cc1ccc(-n2ncc3c(=O)n(CC(=O)N4CCCCCC4)cnc32)cc1
-1.2	.	Cn1c2ccccc2c2c(C(=O)N3CCN(c4ccc(F)cc4)CC3)cn(C3CCCC3)c(=O)c21
12	i	N=c1c(C(=O)NCc2ccccc2)cc2c(=O)n3ccccc3nc2n1Cc1ccco1
-1.7	i	CC(Oc1ccccc1)C(=O)N1CCCc2ccccc21 (stereo not given)
0.8	i	CCOC(=O)Cc1nnc(NC(=O)c2ncn[nH]2)s1
0.7	.	COc1cc(C2=NOC(C(=O)N3CCCc4ccccc43)C2)cc(OC)c1OC (stereo not given)
-0.2	i	Cc1cc(NC(=O)CCC(=O)N(CCc2ccccc2)C(C(=O)NC2CCCC2)c2ccco2)no1 (stereo not given)
-3.0	.	CCCCC(=O)Nc1cc(C)c2c(=O)oc3ccccc3c2n1
0.8	i	CC1(C)CC(=O)C(C=NC(CCC(N)=O)C(=O)O)=C(O)C1 (stereo not given)
1.3	.	CCn1c(SCC(=O)N2CCOCC2)nc(O)cc1=O
-2.0	i	C=CCn1c(SCC(=O)NC2CCCCC2)nnc1-c1sc(N)nc1C
0.0	i	CN(C)CCCN1c2ccccc2Sc2ccc(C(F)(F)F)cc21
?	.	O=C(Cn1c(=O)n(Cc2ccco2)c(=O)c2cc(Cl)ccc21)NCC1CCCO1 (stereo not given)
-0.3	.	COCCN1Cc2c(sc(C)c2C)N(C(=O)c2ccccc2)C1
0.7	.	CCOc1ccccc1NC(=O)c1cccc2c1C(=O)N(CCOC)C2
0.0	i	Cc1cc(=O)[nH]c(=S)n1-c1ccccc1
1.6	.	O=C(C1CC1)N1CCc2cc(Br)cc(S(=O)(=O)NCCCN3CCCC3)c21
-1.4	.	CCCCN(C)CCCNC(=O)Cn1c(=O)sc2ccccc21
0.9	.	O=C(c1cccn2c(=O)c3ccc(Cl)cc3nc12)N1CCN(Cc2ccc3c(c2)OCO3)CC1
-3.2	i	Cc1ccc(O)c(NC(=O)COc2cc(C)ccc2C)c1

The final five entries of the section above lead into the next.
Proteasome disasm	VCAM-1 up	molecule
0.0	i	Cc1cc(=O)[nH]c(=S)n1-c1ccccc1
1.6	.	O=C(C1CC1)N1CCc2cc(Br)cc(S(=O)(=O)NCCCN3CCCC3)c21
-1.4	.	CCCCN(C)CCCNC(=O)Cn1c(=O)sc2ccccc21
0.9	.	O=C(c1cccn2c(=O)c3ccc(Cl)cc3nc12)N1CCN(Cc2ccc3c(c2)OCO3)CC1
-3.2	i	Cc1ccc(O)c(NC(=O)COc2cc(C)ccc2C)c1
-1.2	.	O=S(=O)(c1ccccc1C(F)(F)F)N1CCOCC1
-0.8	i	CCC1CCCCN1C(=O)C1CC(c2cc(Cl)c(OC)cc2OC)=NO1 (stereo not given)
0.7	i	Nc1nc2ccc(OC(F)(F)F)cc2s1
1.4	.	COc1ccc(OC)c(NC(=O)C2CCCN(S(=O)(=O)c3cccc4nsnc34)C2)c1 (stereo not given)
0.2	.	Cc1cccc(C2CC(c3ccccc3)Nc3ncnn32)c1 (stereo not given)
3.3	.	CC(=O)C1C(c2cccc(Oc3ccccc3)c2)NC(=O)NC1(O)C(F)(F)F (stereo not given)
1.5	.	CCC(=O)NCCCOc1ccccc1
31	i	COc1ccc(Cn2c(N)c(C#N)c3nc4ccccc4nc32)cc1OC
-1.4	i	COc1ccccc1Nc1nc(N)nc(CSc2nccc(C)n2)n1
0.0	i	COC(=O)c1cc(OC)c(OC)cc1NC(=O)c1ccc(Br)o1
-1.3	i	COC(=O)C(C)Oc1ccc2c3c(c(=O)oc2c1)CCCCC3 (stereo not given)
-0.3	.	CCOc1cc2[nH]c(=O)n(CC3CCC(C(=O)NC4CCCCC4)CC3)c(=O)c2cc1OCC (stereo not given)
